Compound activity: PubChem BioAssay, National Center for Advancing Translational Sciences (NCATS)
Cruzain Triton: inhibitors of Trypanosoma cruzi cruzain with detergent. P25779. purified cruzain, Z-FR-AMC fluorescence, 0.01% Triton. Potency, µM, inactives show max response, negative = inhibition, actives largely listed as inhibitors. 0.43% of 200,000 active. AID 1478;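 also: plate controls were neutral wells for no effect and buffer without enzyme for full effect; nearly all actives have a fitted effect of over 40% in size; top concentration of the series not given in the record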
Target sequence (P25779 123-467 limits assumed): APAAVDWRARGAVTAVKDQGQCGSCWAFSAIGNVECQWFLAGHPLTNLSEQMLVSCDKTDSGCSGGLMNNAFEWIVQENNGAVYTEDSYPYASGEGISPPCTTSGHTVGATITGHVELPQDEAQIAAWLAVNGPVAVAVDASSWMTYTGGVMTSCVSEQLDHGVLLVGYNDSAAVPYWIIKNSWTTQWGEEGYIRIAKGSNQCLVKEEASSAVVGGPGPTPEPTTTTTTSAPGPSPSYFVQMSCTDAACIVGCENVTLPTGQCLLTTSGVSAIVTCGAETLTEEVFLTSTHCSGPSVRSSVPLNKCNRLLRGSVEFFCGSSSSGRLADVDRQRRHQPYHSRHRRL
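Enzyme 1.5 nM, Z-FR-AMC 2 uM, NaOAc 100 mM pH 5.5, DTT 5 mM, Triton X-100 0.01%; 15 min RT compound preincubation; kinetic ex360/em450, 60 s delta.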
MARV entry inh: inhibitors of Marburg virus binding or cell entry; Marburg virus pseudotyped entry inhibition, cell reporter; control for the full effect not named in the record; about a third of the inactives were read at about 46 µM; Potency, µM (top dose mostly 37.8 µM), inactives show at the highest dose activity change, negative = inhibition, hits mostly inhibitors; 1.8% of 300,000 active; active = well fitted inhibition curve with a large enough effect; inconclusive = small, poorly fitted or top-dose-only effect, or effect the other way; inactive = flat fitted curve, though single readings scatter; tested in HEK293 cells; about a fifth of its hits are not listed in these tables; also: % is scaled to controls: 0 for no effect and ±100 for the full control effect; luciferase read-out
RE007 growth inh: less growth of the S. pombe RE007 Vpr strain. S. pombe RE007 Vpr strain, BacTiter-Glo ATP luminescence, 24 h; control for the full effect not named in the record. Potency, µM (top dose mostly 92.2 µM), for the others: at the highest dose activity change, negative = less growth. 0.21% of 360,000 active. AID 651644; active = well fitted falling curve with a large enough effect; inconclusive = small, poorly fitted or top-dose-only effect; inactive = no such curve, though single readings can be large or run the other way;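 also: % is scaled to controls: 0 for no effect and ±100 for the full control effect; nearly all actives have a fitted effect of over 50% in size; the assay follows cell death caused by Vpr and the record does not say whether a fall means rescue or toxicity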
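Fission yeast strain RE007, carrying one chromosomally integrated HIV-1 vpr copy, was seeded at OD 0.01 in PMG+AL medium with 23 nL pinned compound. After 24 h at 30 °C and 99% humidity, viability was read by BacTiter-Glo luminescence.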
SARS PLpro yeast: SARS-CoV PLP inhibition in yeast; S. cerevisiae expressing SARS-CoV PLpro, growth rescue; control for the full effect not named in the record; Potency, µM (highest dose often 32.9 µM), for the others: top-dose activity, positive = growth rescue; 0.19% of 330,000 active; AID 485353; active means well fitted rising curve with a large enough effect; inconclusive means small, poorly fitted or top-dose-only effect; inactive means no such curve, though single readings can be large or run the other way; also: 0% is about no effect; nearly all actives have a fitted effect of over 55% in size; growth read by luminescence after 48 h
NS1 inh: influenza NS1 inhibition; 0.4% of 270,000 active; S. cerevisiae slowed by influenza A NS1, growth recovery by OD600; Potency, µM (doses to about 46.1 µM), without a hit: top-dose activity, positive = more growth; active means well fitted rising curve with a large enough effect; inconclusive means small, poorly fitted or top-dose-only effect; inactive means no such curve, though single readings can be large or run the other way; also: nearly all actives have a fitted effect of over 50% in size
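Compounds were scored for reversing the slow growth caused by influenza A NS1 in S. cerevisiae, measured by optical density at 600 nm. Assay medium contained 2% galactose at pH 6.0; NS1-free yeast of the same strain were the positive control.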
Cruzain noTriton: blocks cruzain activity in detergent-free assay; P25779; purified cruzain, Z-FR-AMC fluorescence, no detergent; Potency, µM, for inactives: max response, negative = inhibition, hits mostly inhibitors; 2.3% of 200,000 active;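 also: plate controls were enzyme without inhibitor for no effect and buffer without enzyme for full effect; nearly all actives have a fitted effect of over 40% in size; top concentration of the series not given in the record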
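Purified cruzain at 1.5 nM, pre-incubated 15 min with compound at room temperature in 100 mM sodium acetate pH 5.5, 5 mM DTT, 0.00005% Triton X-100. Reaction started with 2 uM Z-FR-AMC; AMC fluorescence increase over 60 s gives rate.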
LASV entry inh: Lassa virus entry inhibition. AID 540256. 1.2% of 300,000 active. Lassa virus pseudotype entry inhibition, cell reporter; control for the full effect not named in the record. Potency, µM (highest dose often 37.9 µM), for the others: at the highest dose activity change, negative = inhibition, usual class: inhibitors; active means well fitted inhibition curve with a large enough effect; inconclusive means small, poorly fitted or top-dose-only effect, or effect the other way; inactive means flat fitted curve, though single readings scatter; tested in HEK293 cells; also: % is scaled to controls: 0 for no effect and ±100 for the full control effect; nearly all actives have a fitted effect of over 50% in size; luciferase read-out
2A StopGo: FMDV 2A StopGo reporter, luciferase signal. human cells with a luciferase reporter of 2A StopGo recoding; control for the full effect not named in the record. Potency, µM (top dose mostly 57.9 µM), without a hit: top-dose signal change, negative = less light. 1.2% of 410,000 active. AID 1159524; active = well fitted falling curve with a large enough effect; inconclusive = small, poorly fitted or top-dose-only effect; inactive = no such curve, though single readings can be large or run the other way; tested in HEK293T cells; also: % is scaled to controls: 0 for no effect and ±100 for the full control effect; nearly all actives have a fitted effect of over 45% in size; luciferase light after 4 h
The depositor's hits bear a star; [ ] = dose if it differs, or a comment. Unless noted, calls follow the shape of the dose curve; as a rule, active = well fitted curve in the direction sought with a large enough effect; inconclusive = small, poorly fitted or top-dose-only effect, or another doubt; inactive = no such curve, though single readings can be large; an effect the other way counts as inactive or inconclusive. Potency is read from the fitted curve at half-maximal effect. No enrichment for hits; overall some 4.7% were active at least once.

How did O=S(=O)(CCc1ccccc1)/N=C/c1cccs1 do in these assays?
Cruzain Triton: 8.4%; MARV entry inh: 15%; RE007 growth inh: 2%; SARS PLpro yeast: 4%; NS1 inh: 7%; Cruzain noTriton: -8%; LASV entry inh: 9%; 2A StopGo: -11%

What do the screens show for `CCC(=O)N1c2ccccc2NC2=C(C(=O)CC(C)(C)C2)C1c1cccnc1` (stereo not given)?
RE007 growth inh: -5%; SARS PLpro yeast: 0%; NS1 inh: -3%; 2A StopGo: -10%

Results for CCS(=O)(=O)c1ccc(-c2cccc(NC(=O)c3ccco3)c2)nn1 ?
MARV entry inh: -14%; RE007 growth inh: 19%; SARS PLpro yeast: 0%; LASV entry inh: 0%; 2A StopGo: -10%

How did CN(C)S(=O)(=O)c1cccc(NC(=O)c2cccc(S(=O)(=O)N3CCCCC3)c2)c1 do in these assays?
MARV entry inh: inconclusive; RE007 growth inh: 12%; SARS PLpro yeast: -2%; LASV entry inh: 0%; 2A StopGo: -28%

Results for O=C(N1CCCCC1)C1(S(=O)(=O)c2ccccc2)CC=CC1 ?
RE007 growth inh: 2%; SARS PLpro yeast: 4%; NS1 inh: 10%; 2A StopGo: 30%[activator]

Results for Cc1c(NC(=O)COC(=O)c2ccc[nH]c2=O)c(=O)n(-c2ccccc2)n1C ?
Cruzain Triton: -1.6%; MARV entry inh: 9%; RE007 growth inh: 4%; SARS PLpro yeast: -18%; NS1 inh: 2%; Cruzain noTriton: 0%; LASV entry inh: 17%; 2A StopGo: -1%

Results for O=C1c2cccc3cccc(c23)C(=O)N1c1cccnc1 ?
Cruzain Triton: -7.0%; MARV entry inh: 11%; RE007 growth inh: 9%; SARS PLpro yeast: -11%; NS1 inh: -33%; Cruzain noTriton: 2%; LASV entry inh: -2%

Results for Cc1ccc(S(=O)(=O)N2CCCC2C(=O)N(C)Cc2cccs2)cc1 (stereo not given) ?
Cruzain Triton: 3.0%; MARV entry inh: -16%; RE007 growth inh: -1%; SARS PLpro yeast: 12%; NS1 inh: -84%; Cruzain noTriton: 1%; LASV entry inh: inconclusive; 2A StopGo: 21%

Results for CCOc1ccc(NC(=O)Cn2c(=O)n(CCCCC(=O)NCc3ccc4c(c3)OCO4)c(=O)c3ccccc32)cc1 ?
Cruzain Triton: 0.2%; MARV entry inh: -12%[46.1 µM]; Cruzain noTriton: 0%; LASV entry inh: inconclusive; 2A StopGo: inconclusive

Results for CCN(Cc1ccccc1)C(=O)CC1Oc2ccccc2NC1=O (stereo not given) ?
Cruzain Triton: 4.0%; RE007 growth inh: 1%; SARS PLpro yeast: 1%; NS1 inh: -1%; Cruzain noTriton: -6%; 2A StopGo: -13%

How did Cc1nn(CCC(=O)O)c(C)c1C do in these assays?
Cruzain Triton: 4.2%; MARV entry inh: -1%; RE007 growth inh: 0%; SARS PLpro yeast: 2%; NS1 inh: 4%; Cruzain noTriton: 5%; LASV entry inh: 0%

What do the screens show for `COc1ccc(S(=O)(=O)N2CCCCCC2)cc1C(=O)OCC(=O)NC(C)(C)C`?
MARV entry inh: 5%; RE007 growth inh: -14%; SARS PLpro yeast: 1%; LASV entry inh: 4%[46.1 µM]; 2A StopGo: -10%

Results for CC(=O)C1=C(c2ccccc2)N(C(C)=O)n2c(nnc2C2CCCCC2)S1 ?
Cruzain Triton: -2.7%; Cruzain noTriton: 6%; LASV entry inh: inconclusive; 2A StopGo: -27%

How did NC(=O)NCCCC(=O)NCC(c1ccccc1Cl)c1c[nH]c2ccccc12 (stereo not given) do in these assays?
RE007 growth inh: -1%; SARS PLpro yeast: 0%; NS1 inh: -6%; 2A StopGo: -6%

What do the screens show for `CCOc1cc(CNc2ncnc3nc[nH]c23)ccc1OC`?
Cruzain Triton: 5.2%; RE007 growth inh: 2%; SARS PLpro yeast: 5%; NS1 inh: -33%; Cruzain noTriton: -3%; 2A StopGo: 0%

Results for Cc1ccc(C(=O)N/N=C\c2ccc([N+](=O)[O-])o2)cn1 ?
MARV entry inh: inconclusive; RE007 growth inh: -12%; SARS PLpro yeast: -2%; NS1 inh: -5%; LASV entry inh: inconclusive; 2A StopGo: -25%

Results for C=CCn1c(N)c(C(=O)Nc2ccccc2OC)sc1=S ?
Cruzain Triton: -12%; MARV entry inh: 15%; RE007 growth inh: 10%; SARS PLpro yeast: -21%; NS1 inh: -19%; Cruzain noTriton: -3%; LASV entry inh: -4%; 2A StopGo: 32%[activator]

What do the screens show for `CCNC(=O)C/C(C)=N/NC(=O)C1CCCCC1`?
Cruzain Triton: -0.1%; MARV entry inh: inconclusive; RE007 growth inh: 2%; SARS PLpro yeast: 16%; NS1 inh: 11%; Cruzain noTriton: -4%; LASV entry inh: 1%; 2A StopGo: 0%

Results for CC(C)(C)c1ccc(C(=O)COC(=O)CN2C(=O)NC3(CCCC3)C2=O)cc1 ?
MARV entry inh: -2%; RE007 growth inh: -11%; SARS PLpro yeast: 2%; NS1 inh: 3%; LASV entry inh: -1%; 2A StopGo: -7%

How did COc1ccc(/C=N/NC(=O)Cc2ccc(Cl)cc2)cc1OC do in these assays?
MARV entry inh: inconclusive; RE007 growth inh: -3%; SARS PLpro yeast: 1%; LASV entry inh: -5%; 2A StopGo: 10%

Compounds shown so far that have a furan ring, fused or not:
Results for CCS(=O)(=O)c1ccc(-c2cccc(NC(=O)c3ccco3)c2)nn1 ?
MARV entry inh: -14%; RE007 growth inh: 19%; SARS PLpro yeast: 0%; LASV entry inh: 0%; 2A StopGo: -10%

Results for Cc1ccc(C(=O)N/N=C\c2ccc([N+](=O)[O-])o2)cn1 ?
MARV entry inh: inconclusive; RE007 growth inh: -12%; SARS PLpro yeast: -2%; NS1 inh: -5%; LASV entry inh: inconclusive; 2A StopGo: -25%

Continuation:
Results for COc1ccc(N2C(=O)N3[C@H](c4ccc(Cl)cc4)[C@@H]4C(=O)N(C5CCCCC5)C(=O)[C@@H]4[C@]3(C)C2=O)cc1 ?
RE007 growth inh: 1%; SARS PLpro yeast: 7%; NS1 inh: inconclusive; 2A StopGo: -13%

Results for O=C(NNC(=O)c1ccccc1O)c1ccccc1O ?
MARV entry inh: inconclusive; RE007 growth inh: -18%; LASV entry inh: inconclusive; 2A StopGo: -6%

Results for CCn1cc(C(C)(C)C)c(C#N)c1NC(C)=O ?
Cruzain Triton: -0.7%; MARV entry inh: 11%; RE007 growth inh: 11%; SARS PLpro yeast: 0%; NS1 inh: -6%; Cruzain noTriton: 1%; LASV entry inh: 0%; 2A StopGo: -6%

What do the screens show for `N#C/C(=N\Nc1cccc(C(F)(F)F)c1)C(=O)c1ccsc1`?
RE007 growth inh: -19%; SARS PLpro yeast: -6%; NS1 inh: -65%; 2A StopGo: 12%

How did CCC1CCCCN1CCCNC(=O)c1cc2c(=O)n(CC)c3ccccc3c2s1 (stereo not given) do in these assays?
Cruzain Triton: -1.1%; MARV entry inh: -1%[46.1 µM]; Cruzain noTriton: 5%; LASV entry inh: inconclusive; 2A StopGo: -13%

What do the screens show for `Cc1ccc2c(c1)C1CN(C)CCC1N2S(=O)(=O)c1ccc(Oc2ccc([N+](=O)[O-])cc2)cc1` (stereo not given)?
RE007 growth inh: 5%; SARS PLpro yeast: -1%; NS1 inh: -1%; 2A StopGo: -28%

What do the screens show for `O=C(Nc1ccccn1)c1ccc(Br)s1`?
MARV entry inh: -34%; RE007 growth inh: -28%; SARS PLpro yeast: -3%; NS1 inh: -30%; LASV entry inh: inconclusive; 2A StopGo: 33%[activator]

What do the screens show for `COc1cc(/C=C/C(=O)Nc2nnc(CC(C)(C)C)s2)cc(OC)c1OC`?
Cruzain Triton: 4.7%; MARV entry inh: 8%; RE007 growth inh: -19%; SARS PLpro yeast: 20%; NS1 inh: -1%; Cruzain noTriton: 15%; LASV entry inh: 1%; 2A StopGo: -5%

Results for COc1ccc(S(=O)(=O)N2CCCOC2CNC(=O)C(=O)NCc2ccccn2)cc1 (stereo not given) ?
MARV entry inh: -10%; RE007 growth inh: 2%; SARS PLpro yeast: 12%; NS1 inh: 0%; LASV entry inh: 12%; 2A StopGo: -7%

How did CC(=O)Nc1ccccc1C(=O)C(=O)Nc1cccc(C(=O)NCC2CCCO2)c1 (stereo not given) do in these assays?
MARV entry inh: inconclusive; RE007 growth inh: 3%; SARS PLpro yeast: 1%; LASV entry inh: inconclusive; 2A StopGo: -1%

How did O=C(CN1CCCc2ccccc21)Nc1cccc(S(=O)(=O)N2CCOCC2)c1 do in these assays?
MARV entry inh: -9%; RE007 growth inh: 16%; SARS PLpro yeast: 2%; LASV entry inh: -13%; 2A StopGo: 0%

What do the screens show for `COCC(C)OC(=O)c1c(N)n(CC(C)C)c2nc3ccccc3nc12` (stereo not given)?
Cruzain Triton: -18%; MARV entry inh: inconclusive; RE007 growth inh: -4%; SARS PLpro yeast: 6%; NS1 inh: 1%; Cruzain noTriton: 3%; LASV entry inh: 2%; 2A StopGo: -14%

Results for O=C1OC(c2cccs2)=N/C1=C\c1ccc(-c2ccccc2Cl)o1 ?
Cruzain Triton: -25%; MARV entry inh: 1%; RE007 growth inh: -7%; SARS PLpro yeast: -1%; NS1 inh: -10%; Cruzain noTriton: inconclusive; LASV entry inh: -2%; 2A StopGo: -14%

What do the screens show for `CCCCNC(=O)Nc1ccccc1CC`?
RE007 growth inh: 13%; SARS PLpro yeast: 1%; NS1 inh: 9%; 2A StopGo: -1%

How did CCN(Cc1ccccc1)C(=O)c1ccc(C(=O)N(CC)Cc2ccccc2)cc1 do in these assays?
RE007 growth inh: -14%; SARS PLpro yeast: -6%; NS1 inh: -9%; 2A StopGo: inconclusive

Results for Cc1nc2ccccc2c2c1C(=O)N(Cc1cccnc1)C2=O ?
Cruzain Triton: -4.1%; MARV entry inh: -9%; RE007 growth inh: 18%; SARS PLpro yeast: -1%; NS1 inh: -6%; Cruzain noTriton: -8%; LASV entry inh: 15%; 2A StopGo: -24%
